Assay outcomes as filed in PubChem BioAssay.
Vaccinia Venus = inhibitors of vaccinia virus (Venus reporter) | Vaccinia virus Venus reporter expression, fluorescence | Potency, µM (series often up to 36.5 µM), for the others: top-dose activity change, negative = inhibition, actives largely listed as inhibitors | hit rate 0.46% among 330,000; active means well fitted inhibition curve with a large enough effect; inconclusive means small, poorly fitted or top-dose-only effect; inactive means no such curve, though single readings can be large or run the other way; tested in A549 cells; also: nearly all actives have a fitted effect of over 30% in size; inactives centre near -10
VACV mCherry inh = inhibitors of vaccinia virus infection (mCherry reporter signal); Vaccinia virus mCherry reporter infection, fluorescence; about a quarter of the inactives have no number; Potency, µM (doses to about 36.5 µM), without a hit: at the top dose activity change, negative = inhibition, actives largely listed as inhibitors; hit rate 0.63% among 310,000; active = well fitted inhibition curve with a large enough effect; inconclusive = small, poorly fitted or top-dose-only effect; inactive = no such curve, though single readings can be large or run the other way; tested in A549 cells; also: nearly all actives have a fitted effect of over 35% in size; inactives centre near -10
Starred values were filed as active, the others as inactive; i = inactive; ? = inconclusive; nt = no result given; & = joins results of further samples; [ ] = dose if it differs, or a comment. % is scaled to controls: 0 for no effect and ±100 for the full control effect; potency is read from the fitted curve at half-maximal effect.

Second line of a record: Vaccinia Venus | VACV mCherry inh
CCN(CCNc1ccc([N+](=O)[O-])c2cccnc12)S(=O)(=O)c1ccccc1
→ -7.2% | -7.9%
CC(C)COc1ccc(C(=O)NCC2OCCc3ccccc32)cc1 (centres undefined)
→ 0.8% | -12.8%
CC(C)=CC(=O)Nc1c(C)cc(C)cc1Cl
→ -7.4% | -1.7%
O=C1CC(C(=O)N2CCN(S(=O)(=O)c3cccc(F)c3)CC2)CN1Cc1ccccc1Cl (centres undefined)
→ -2.9% | -6.2%
CN(C)C(=O)c1ccc(-n2nc(C(F)(F)F)c3c2CCCC3)cc1
→ -26.2% | nt
COc1ccccc1CN1CC(C(=O)NC2CCCCC2)CC1=O (centres undefined)
→ -14.7% | i
CCCCN1C=C(C(=O)OCC)C(=O)CC1
→ -3.0% | -4.7%
Cc1cccc(NC(=O)c2oc3c(c2C)-c2[nH]ncc2CC3)c1C
→ -6.9% | -8.8%
COc1ccc(-c2cn3nc(N4CCC(C(=O)NCc5cccc(Cl)c5)CC4)sc3n2)cc1
→ -7.3% | -12.2%
CCOP(=O)(OCC)C1(O)C(=O)Nc2ccc(Br)cc21 (centres undefined)
→ 2.4% | i
COc1ccc(C(=O)/C=C/Nc2ccc(S(=O)(=O)Nc3cccc(C(C)=O)c3)cc2)cc1
→ -28.6% | -26.5%
COc1ccc(-c2noc(=O)n2Cc2ccc(C#N)cc2)cc1
→ -5.2% | i
COc1ccc(Cl)cc1NC(=O)N(C)Cc1c(C)nn(C)c1C
→ -7.9% | -2.2%
CC(=O)c1sc(NC(=O)c2cc3c(C)nn(-c4ccccc4)c3s2)nc1C
→ -18.2% | -18.8%
CCN(C[C@H]1N[C@@](Cc2ccccc2)(C(=O)OC)[C@H]2C(=O)N(C)C(=O)[C@@H]12)C(=O)Nc1ccc(C(F)(F)F)cc1
→ -28.8% | -11.8%
Cc1ccc(/C(N)=N/OC(=O)N2CCOCC2)cc1
→ -25.1% | -20.1%
O=C(CNCC1CCCO1)Nc1ccc([N+](=O)[O-])cc1C(=O)Nc1ccccc1F (centres undefined)
→ -4.9% | -20.0%
Cc1ccc(C)c(NS(=O)(=O)c2ccc(OCC(=O)NCc3ccco3)cc2)c1
→ -17.4% | ?
O=c1c2ccccc2nc(SCc2ccc([N+](=O)[O-])cc2)n1-c1ccc(Cl)cc1
→ -6.8% | -5.3%
COc1ccc(N=c2cc(-c3ccc(OC)cc3)oc3ccccc23)cc1
→ -24.6% | -9.3%
Cc1ccc(C(=O)NCC(=O)NCC(c2cccs2)N(C)C)cc1C (centres undefined)
→ -14.4% | -19.8%
CCOC(=O)[C@]12Cc3cc(OC)ccc3[C@H]1N(C1CCCCC1)C(=O)c1cc(OC)ccc12
→ ? | ?
O=C(O)CN1CCN(Cc2ccccc2F)C1=O
→ 0.1% | -13.4%
COc1cc(CCC(C)NCc2ccccc2)ccc1O (centres undefined)
→ -8.7% | -20.8%
O=C(c1oc(=O)c2ccccc2c1-c1ccccc1)N1CCC(O)CC1
→ -14.1% | -2.8%
O=C(NCCc1ccccc1)c1c(F)c(F)c(F)c(F)c1F
→ ? | ?
COc1ccc(-c2noc(N3CCC(C(=O)Nc4ccc(F)cc4F)CC3)n2)cc1
→ -25.2% | i
COc1ccc(OC)c(Nc2nc(NCCCN(C)C)nc(N)c2[N+](=O)[O-])c1
→ 3.9% | -8.0%
Cc1cccc(N2CCN(S(=O)(=O)c3ccc(-c4cnc(C5CC5)o4)cc3)CC2)c1C
→ -1.1% | -12.8%
CCCCCS(=O)(=O)c1oc(-c2cccs2)nc1S(=O)(=O)c1ccc(C)cc1
→ -27.9% | -27.3%
CCc1ccc(NC(=O)Nc2cn(C)c(=O)c3ccccc23)cc1
→ -19.2% | -16.1%
COc1ccc(S(=O)(=O)N2CCCC2CNC(=O)C(=O)Nc2cccc(F)c2)cc1 (centres undefined)
→ -13.7% | i
Cc1ccc(NC(=O)NCC2CCN(Cc3cc(C)ccc3Cl)CC2)c(C)c1
→ ? | -3.9%
Nc1nonc1-n1nnc(C(=O)N/N=C/c2c(Cl)cccc2Cl)c1CSC1=NCCS1
→ -12.5%[7.34 µM] | -17.7%[7.34 µM]
Cc1ccnc(NC(=O)Nc2ccc(Br)cc2Cl)c1
→ 0.2% | i
O=C1OC(c2cccc3c(F)cccc23)c2ccccc21 (centres undefined)
→ -11.9% | -29.9%
COc1ccc(CN(C)C(=O)c2cccc(S(=O)(=O)N3CCN(c4ccccc4)CC3)c2)c(OC)c1OC
→ -28.5% | ?
COc1ccc(N(C)C(=O)Cc2c(C(=O)O)[nH]c3ccccc23)c(OC)c1
→ -18.7% | i
O=C(Cc1ccccc1[N+](=O)[O-])NC1CC1
→ -5.6% | -7.7%
Cc1cccc(NS(=O)(=O)c2ccc(C(=O)NCC(c3ccco3)N3CCCCC3)cc2)c1C (centres undefined)
→ -10.9% | -19.3%
COc1cc(/C=C(\NC(C)=O)C(=O)NC(C)(C)C)ccc1OC(C)=O
→ -13.8% | -19.7%
Nc1cc(N)cc(C(=O)c2ccccc2)c1
→ -0.6% | 5.8%
CC(C)CC(C(=O)NCC1CCN(Cc2ccc(F)cc2)CC1)N1Cc2ccccc2C1=O (centres undefined)
→ -10.3% | -15.4%
COc1ccc(/C=N/Nc2nc(-c3cccnc3)nc3ccccc23)cc1OC
→ 4.0% | -12.8%
Cc1ccc2c(SCC(=O)NCc3ccco3)nc(-c3ccc(F)cc3)nc2c1
→ -12.9% | ?
Brc1ccccc1CN1CCC(Cc2ccccc2)CC1
→ -22.0% | -3.3%
NS(=O)(=O)c1ccc(CCNC(=O)CCNC(=O)c2ccco2)cc1
→ 5.8% | -1.5%
CC(=O)Nc1cc(-c2ccc(C(=O)N3CCOCC3)cc2)cn2c(-c3ccc(F)c(Cl)c3)cnc12
→ 4.1% | -13.4%
Cc1ccc(C2=NN=C(NC(=O)C(F)(F)F)SC2)cc1
→ -5.7% | -0.1%
CCC1CN(C(=O)Nc2cccc(C)c2)c2cc(C)ccc2O1 (centres undefined)
→ -5.5% | -9.7%
CCOc1cnc(-c2c(-c3c(F)cccc3Cl)noc2C)o1
→ -14.3% | i
Cc1ccc(C)c(NC(=O)c2cc3c([nH]c4ccccc43)c(C)n2)c1
→ -6.2% | nt
CCOC(=O)COc1cc(Br)c(C2NC(=O)NC(C)=C2C(C)=O)cc1OCC (centres undefined)
→ 0.5% | -5.7%
CC(=O)N1CCCC1C(=O)O (centres undefined)
→ -7.5%&-19.5% | -23.7%
CCCC(CCC(=O)Nc1nccs1)C(=O)O (centres undefined)
→ -0.6% | i
O=S1(=O)CC=C(CSC(=S)NC2CCS(=O)(=O)C2)C1 (centres undefined)
→ -3.2% | i
COc1cc(C2C(C#N)=C(N)N(N(C)C)C3=C2C(=O)CC(C)(C)C3)cc(OC)c1OC (centres undefined)
→ -3.9% | -0.1%
C#CCSc1nnc(C)c(C)n1
→ -14.0% | -14.3%
COc1ccc(C(=O)Nc2ccc(S(=O)(=O)N(C)c3ccccc3)cc2)cc1
→ -3.5% | -11.4%
COc1ccc(CNC(=O)Nc2ccc3c(c2)c(=O)n(C)n3Cc2cc(C)cc(C)c2)cc1
→ -3.6% | -19.4%

3 entries from above, ordered by SMILES length, rising:
Second line of a record: Vaccinia Venus | VACV mCherry inh
CCCCN1C=C(C(=O)OCC)C(=O)CC1
→ -3.0% | -4.7%
COc1cc(CCC(C)NCc2ccccc2)ccc1O (centres undefined)
→ -8.7% | -20.8%
CCOC(=O)[C@]12Cc3cc(OC)ccc3[C@H]1N(C1CCCCC1)C(=O)c1cc(OC)ccc12
→ ? | ?

(further entries)
Second line of a record: Vaccinia Venus | VACV mCherry inh
Cc1cccc(N2CCN(C(=O)C3CCN(c4nnc(-n5cccc5)s4)CC3)CC2C)c1 (centres undefined)
→ -6.6% | -13.4%
Cc1onc(-c2ccccc2Cl)c1C(=O)OCC(=O)Nc1cccc(S(=O)(=O)N2CCOCC2)c1
→ -14.3% | -12.1%
Cc1ccc(S(=O)(=O)N2CCCC(C(=O)NCc3cccnc3)C2)cc1Cl (centres undefined)
→ -16.3% | -18.5%
COc1ccc(N2C(=O)c3ccccc3NC2c2ccc(OC)c(COc3ccccc3F)c2)cc1 (centres undefined)
→ -9.7% | -15.0%
CN(C)C(=O)CCC(=O)N1CCCCC1C(=O)Nc1ccc(Oc2ccccc2F)cc1 (centres undefined)
→ -1.5% | 3.9%
Cc1nn(CCc2nn[nH]n2)c2nc(-c3ccc(C4CCCCC4)cc3)cc(C(F)(F)F)c12
→ -17.8% | i
N#Cc1nc(COc2ccccc2)oc1N1CCC(Cc2ccccc2)CC1
→ -3.6% | -13.6%
CCc1cccc(NC(=O)CC2SC(N3CCCC3)=NC2=O)c1 (centres undefined)
→ -7.6% | -13.2%
O=[N+]([O-])c1cccc(C2NCC(c3ccccc3Cl)c3c2[nH]c2ccccc32)c1 (centres undefined)
→ -17.6% | -6.3%
Cc1ccccc1-c1ocnc1C(=O)Nc1ccccc1NC(=O)c1ccccn1
→ -18.6% | ?
COc1cc(/C=C/C(=O)OCC(=O)NCc2ccco2)ccc1OC(F)F
→ -18.4% | -1.4%
Cc1cc(C)c2cc(C#N)c(NCCCN)nc2c1
→ -15.7% | -24.0%
COc1ccc(-n2c(SCC(N)=O)nc3sc4c(c3c2=O)CCN(C)C4)cc1
→ -1.9% | -8.6%
O=C1CN=C(c2ccccc2Cl)c2cc(Br)ccc2N1
→ 6.1% | -1.9%
Clc1cccc(Cl)c1CNC1CCCC1
→ -6.2% | -14.2%
Cc1cc2c(c(C)c1Br)C(c1ccc3c(c1)OCO3)CC(=O)O2 (centres undefined)
→ -8.9% | i
Cc1ccc(-n2nc3c(N4CCC(C(=O)N5CCC(C)CC5)CC4)nnc(C)c3c2C)cc1
→ -21.2% | -25.3%
Cc1onc(-c2ccccc2)c1C(=O)N1CCC(CO)(Cc2ccccc2)CC1
→ -22.9% | -22.0%
CC1(C)CC(NC(=O)C2CCCCC2)CC(C)(C)N1
→ -8.1% | ?
CCN(CC)c1ccc(-n2cc3c(=O)n(C)c(=O)n(C)c3c2)cc1
→ -23.6% | -15.8%

Record cards, as listed above:
Clc1cccc(Cl)c1CNC1CCCC1 is listed as Vaccinia Venus: -6.2%; VACV mCherry inh: -14.2%
Cc1onc(-c2ccccc2)c1C(=O)N1CCC(CO)(Cc2ccccc2)CC1 is listed as Vaccinia Venus: -22.9%; VACV mCherry inh: -22.0%

Next section
Second line of a record: Vaccinia Venus | VACV mCherry inh
CN1C(=O)c2ccc(S(=O)(=O)c3ccc(C(=O)O)cc3)cc2C1=O
→ -3.5% | i
S=C(NCc1ccccc1)N1CCN(c2ccccc2)CC1
→ -12.2% | -8.2%
O=C(NCc1ccncc1)C(=O)NCC1OCCCN1S(=O)(=O)c1cc(F)ccc1F (centres undefined)
→ -7.5% | -14.2%
CCc1c(C#N)sc(C(N)=O)c1CC
→ 3.2% | i
CN(C)C(CNc1ccc(C(N)=O)cc1[N+](=O)[O-])c1ccccc1 (centres undefined)
→ 17.9% | -12.6%
C[C@@H]1CCCCO[C@H](CN(C)C(=O)c2ccncc2)[C@H](C)CN([C@@H](C)CO)C(=O)c2cc(NC(=O)c3ccccc3)ccc2O1
→ -5.2% | -13.5%
O=C(Nc1ccc(Cl)c(Cl)c1)O/N=C/c1ccncc1
→ -14.1% | i
Cc1nc(SCC(=O)NCCc2ccccc2)n[nH]1
→ -17.9% | -22.8%
Cc1ccc(C(=O)N2CCN(c3ccc(NC(=O)c4cc(C)cc(C)c4)cc3)CC2)cc1
→ -6.6% | i
COc1ccc(NC(=O)CCC(=O)OCc2ccc(Br)cc2)cc1
→ -8.5% | i
O=C(/C=C/c1ccc(Br)cc1)NC(=S)N1CCOCC1
→ -4.6% | i
COc1ccc(NC(=O)CCc2nc(C3=CCN(Cc4cccc(C)c4)CC3)no2)c(OC)c1
→ -9.6% | -3.6%
CN(C(=O)COc1ccccc1C(=O)Nc1ccccc1)c1ccccc1
→ -14.1% | 0.5%
O/N=C(\CN1CCCCC1)c1ccccc1
→ -8.7% | i
CN(C)S(=O)(=O)c1ccc(NC(=O)C2CC(=O)N(Cc3ccccc3)C2)cc1 (centres undefined)
→ -5.0% | -0.2%
CC(C)(C)C(=O)CSc1nc2c(c(-c3cccs3)c1C#N)CCC2
→ ? | -18.9%
OCCn1c(Cl)nc2ccccc21
→ -9.8% | i
COc1ccc(-c2cn3cccnc3n2)cc1NC(=O)c1ccccc1C(F)(F)F
→ -11.0% | -9.5%
Cc1ccc(CN2CCN(Cc3ccc(OCCO)cc3)CC2CCO)o1 (centres undefined)
→ 12.8% | -16.9%
COC(=O)c1c(C)nc2ccccc2c1C(=O)O
→ 4.2% | -5.9%
COc1ccccc1COCC(O)CN(Cc1ccco1)Cc1ccccc1O (centres undefined)
→ -13.1% | -13.2%
CCOC(=O)c1ccc2[nH]c3c(c2c1)CCCC3O (centres undefined)
→ -8.1% | -7.7%
O=C(CCCc1ccccc1)N=C1SC2CS(=O)(=O)CC2N1c1ccccc1F (centres undefined)
→ -8.5% | -26.1%
CCOP(=O)(OCC)C(c1ccccc1)N(C)C=O (centres undefined)
→ 7.0% | -8.9%
O=C(COc1cccc2cccnc12)NCC(F)(F)F
→ 2.2% | -15.8%
Cc1ccccc1COC(=O)CN1C(=O)NC2(CCCC2)C1=O
→ -9.0% | -23.1%
